High-throughput results: PubChem, National Center for Advancing Translational Sciences (NCATS)
StopGo RLuc: Primary qHTS Assay for Foot and Mouth Disease Virus Antivirals against NCGC Sytravon and CBC Compound Libraries: Renilla Luciferase Signal | HEK cells with a luciferase reporter of 2A StopGo recoding | Potency, µM (doses to about 57.5 µM), inactives show at the top dose signal change, negative = less light | 120,000 compounds, 0.32% hits | AID 1745857, 2022; active means well fitted falling curve with a large enough effect; inconclusive means small, poorly fitted or top-dose-only effect; inactive means no such curve, though single readings can be large or run the other way; also: nearly all actives have a fitted effect of over 55% in size; overnight with compound
StopGo FLuc: Primary qHTS Assay for Foot and Mouth Disease Virus Antivirals against NCGC Sytravon and CBC Compound Libraries: Firefly Luciferase Signal. HEK cells with a luciferase reporter of 2A StopGo recoding. Potency, µM (top dose mostly 57.5 µM), without a hit: at the top dose signal change, negative = less light. 120,000 compounds, 0.23% hits. AID 1745856, 2022; active = well fitted falling curve with a large enough effect; inconclusive = small, poorly fitted or top-dose-only effect; inactive = no such curve, though single readings can be large or run the other way; also: nearly all actives have a fitted effect of over 60% in size; overnight with compound
An asterisk follows results filed as active; ? = inconclusive; [ ] = remark or other dose. % is scaled to controls: 0 for no effect and ±100 for the full control effect; potency is read from the fitted curve at half-maximal effect.

SMILES	StopGo RLuc	StopGo FLuc
COc1cccc(-c2nc(SCC(=O)Nc3ccc4c(c3)OCO4)c(-c3ccccc3)[nH]2)c1	13%	-22%
N#C/C(=C\c1ccc(-c2ccccc2)o1)c1nc2ccccc2[nH]1	41%[activator]	210%[activator]
CC(C)NC(=O)c1sc2ncccc2c1-n1cccc1	80%[activator]	14%
O=C(c1cc(-c2ccccc2)nc2ccccc12)N(Cc1ccco1)C1CC1	24%	?
COC(=O)c1ccccc1NC(=O)Cn1nc(C(F)(F)F)c2c1CCCC2	0%	11%
CC(C)(C)c1ccc(S(=O)(=O)NCCO)cc1	19%	-1%
CCOc1ccc(Cn2cnc3c2c(=O)n(C)c(=O)n3C)cc1OCC	11µM*	13µM*
CC(=O)Nc1ccc(Sc2ncccn2)cc1	13%	5%
O=S(=O)(NC1=NCCC1)c1cccc(NS(=O)(=O)c2cccc(Br)c2)c1	34%[activator]	-6%
CC(C)(C)c1ccc(OCCOCCn2c(-c3ccc(Cl)cc3)nc3ccccc3c2=O)cc1	-15%	36%[activator]
COc1ccc(C(C)=O)cc1COc1ccccc1C#N	34%[activator]	21%
Cc1cccc(CCNC(=O)C2CCN(c3nc4ccccc4nc3C(F)(F)F)CC2)c1	-6%	-11%
O=c1[nH]c(Nc2ccccc2Cl)nc2nccc(-c3ccco3)c12	42%[activator]	67%[activator]
Cc1ccc(N2C(=O)NC(=O)C3(Cc4cc(C)ccc4N(C)C3)C2=O)c(C)c1 (centres undefined)	-6%	25%
Cc1csc(NC(=O)Cc2ccc(OCc3c(C)noc3C)cc2)n1	?	18%
CS(=O)(=O)N(CC(=O)Nc1ccc2c(c1)OCO2)c1cccc(Cl)c1Cl	33%[activator]	13%
Cc1ccc(C(=O)Nc2ccc3c(c2)CCC3)s1	-7%	39%[activator]
CCN1CCC(N(C(=O)c2cc3ccccc3n2C)C2CC2)CC1	0%	45%[activator]
COc1ccc(CN(C(=O)c2cc(=O)c3ccc(C)cc3o2)C2CCS(=O)(=O)C2)cc1 (centres undefined)	1%	4%
COc1cc(CN(CC2CCCO2)C(=O)COc2ccc(Cl)cc2Cl)cc(OC)c1OC (centres undefined)	12%	17%
Cc1ccccc1C(=O)Nc1nnc(S(=O)(=O)N2CCCCCC2)s1	32%[activator]	0%
CC1CCN(S(=O)(=O)c2ccc3c(c2)N(CC(=O)N2CCN(c4ccc(Cl)cc4)CC2)C(=O)CO3)CC1	6%	10%
CCSc1nc2n(n1)C(c1cccs1)C1=C(CCCC1=O)N2 (centres undefined)	3%	5%
Cc1ccc(-c2cc(C(=O)NCc3ccccn3)c3ccccc3n2)s1	71%[activator]	68%[activator]
O=C1C/C(=C/c2c[nH]c3ccccc23)C(=O)N1c1ccccc1	-4%	0%
N#Cc1ccc(Oc2ccc(Cl)c(Oc3ccc(C#N)c(C#N)c3)c2)cc1C#N	2.5µM*	?
O=C(CCc1nc2ccccc2c(=O)[nH]1)Nc1cccc(O)c1	-8%	17%
CC(=O)NNC(=S)Nc1cc(Cl)ccc1Cl	19%	0%
CCCN1C(=O)c2[nH]nc(-c3ccccc3)c2C1c1cccc(O)c1 (centres undefined)	31%[activator]	-2%
OCc1cccc(Nc2ncnc3ccccc23)c1	-6%	29%
Cc1ccc(N2CC(NC(=O)c3ccc(S(=O)(=O)N(C)C)cc3)CC2=O)cc1C (centres undefined)	-4%	-16%
COc1ccccc1Nc1nc2nccc(-c3ccncc3)c2c(=O)[nH]1	3%	9%
CCOc1ccc(-c2cc(C(=O)N3CCN(c4cccc(C)c4)C(C)C3)c3ccccc3n2)cc1 (centres undefined)	41%[activator]	72%[activator]
Cc1ccc(OCCCCn2nnc3sc4c(c3c2=O)CCC(C)C4)cc1 (centres undefined)	-11%	-2%
O=C(CSc1nc(=O)n(Cc2cccnc2)c2c1CCC2)N1CCCCCC1	0%	8%
CCCCNc1nc(-c2cc(C)n(NC(=O)c3n[nH]c(=O)c4ccccc34)c2C)cs1	-18%	-17%

5 compounds drawn at random from the list so far, as already listed:
SMILES	StopGo RLuc	StopGo FLuc
CC(=O)NNC(=S)Nc1cc(Cl)ccc1Cl	19%	0%
O=C(CCc1nc2ccccc2c(=O)[nH]1)Nc1cccc(O)c1	-8%	17%
CCOc1ccc(-c2cc(C(=O)N3CCN(c4cccc(C)c4)C(C)C3)c3ccccc3n2)cc1 (centres undefined)	41%[activator]	72%[activator]
N#Cc1ccc(Oc2ccc(Cl)c(Oc3ccc(C#N)c(C#N)c3)c2)cc1C#N	2.5µM*	?
O=C1C/C(=C/c2c[nH]c3ccccc23)C(=O)N1c1ccccc1	-4%	0%

(cont.)
SMILES	StopGo RLuc	StopGo FLuc
Cc1ccc2[nH]c(C(=O)NCc3ccccc3)cc2c1	54%[activator]	56%[activator]
Cc1nc(-n2nc(C)c(Cl)c2C)sc1C(=O)Nc1ccc(F)cc1	-8%	2%
Nc1nccnc1C(=O)Nc1ccc(OCc2ccccc2)cc1	9%	0%
CCN(CC(=O)Nc1ccc(NC(C)=O)cc1)Cc1nc2ccccc2o1	12%	16%
Cc1nn(CC(=O)N2CCN(c3ccccc3)CC2)c(=O)c2cc3sccc3n12	-4%	3%
CCCN(CCC)CCCNC(=O)c1cc2c(-c3ccc(Cl)cc3)nn(C)c2s1	9%	-6%
CCOc1cccc(NC(=O)C2CC(=O)N(C)C(=Nc3ccc(OC)cc3)S2)c1 (centres undefined)	4%	4%
COC(=O)c1ccc(-n2nnc(-c3nsc(NC(=O)c4ccc(Cl)cc4)n3)c2C)cc1	-3%	1%
Cc1ccc(CNC(=O)Cn2c(C)cc3ccccc32)cc1	-9%	1%
CCOc1cc2[nH]c(=O)n(CCCC(=O)N3CCN(c4ccc(OC)cc4)CC3)c(=O)c2cc1OCC	-1%	-15%
Fc1ccccc1-c1nc(N2CCCCC2)c2ccccc2n1	5%	10%
O=C(NCC(c1cccnc1)N1CCN(c2ccccc2F)CC1)c1ccc(F)cc1 (centres undefined)	?	?

Six entries from above, with two lines to a compound.
Every second line gives: StopGo RLuc, StopGo FLuc
> Nc1nccnc1C(=O)Nc1ccc(OCc2ccccc2)cc1
    9%, 0%
> O=C(NCC(c1cccnc1)N1CCN(c2ccccc2F)CC1)c1ccc(F)cc1 (centres undefined)
    ?, ?
> CCOc1cc2[nH]c(=O)n(CCCC(=O)N3CCN(c4ccc(OC)cc4)CC3)c(=O)c2cc1OCC
    -1%, -15%
> CCCN(CCC)CCCNC(=O)c1cc2c(-c3ccc(Cl)cc3)nn(C)c2s1
    9%, -6%
> Cc1nn(CC(=O)N2CCN(c3ccccc3)CC2)c(=O)c2cc3sccc3n12
    -4%, 3%
> CCN(CC(=O)Nc1ccc(NC(C)=O)cc1)Cc1nc2ccccc2o1
    12%, 16%

Next compounds follow:
SMILES	StopGo RLuc	StopGo FLuc
CCCc1nc2c(-c3ccc(OC)cc3)c(C)[nH]n2c(=O)c1Cl	-3%	-1%
COc1ccc(-c2nc(CSCC(=O)NCCc3ccc(C)cc3)c(C)o2)cc1OC	-11%	-10%
CCCCCCN1CCS(=O)(=O)N(Cc2ccc(C(F)(F)F)cc2)C(C(=O)OC)C1 (centres undefined)	?	?
CCN(CC(=O)NC(=O)Nc1ccccc1)C(C)c1ccc(C#N)cc1 (centres undefined)	-8%[1.06 µM]	12%
Cc1ccc(CNC(=O)c2cnc(N3CCCC3)nc2C)cc1	14%	4%
N#Cc1c(C(F)(F)F)cc(-c2cccs2)nc1SCC(=O)Nc1cccc(C(F)(F)F)c1	2%	-17%
NC(=O)C(O)(c1ccccc1)c1ccccc1	3%[1.06 µM]	-6%
Cc1csc(NC(=O)CCc2ncc(-c3ccc(F)cc3)o2)n1	10%	0%
O=C(Nc1ccc2oc(-c3ccc(Br)cc3)nc2c1)c1ccc2c(c1)OCO2	-3%	6%
COC(=O)COc1ccc2c(=O)c(-c3ccc(Cl)cc3)coc2c1	-2%	-4%
Cc1cc(C(=O)N2CCCc3ccccc32)c2ccccc2n1	31%[activator]	6%
COc1ccc2nc(C)c(C(=O)NC3CCS(=O)(=O)C3)cc2c1 (centres undefined)	-6%	2%

Compound profiles (already shown). Order of screens: StopGo RLuc	StopGo FLuc
Record of CCOc1ccc(-c2cc(C(=O)N3CCN(c4cccc(C)c4)C(C)C3)c3ccccc3n2)cc1 (centres undefined) = 41%[activator]	72%[activator]
Record of NC(=O)C(O)(c1ccccc1)c1ccccc1 = 3%[1.06 µM]	-6%

New compounds follow:
SMILES	StopGo RLuc	StopGo FLuc
COC(=O)c1c(C)[nH]c(-c2ccccc2OC)c1C1C(=O)Nc2c(Cl)cccc21 (centres undefined)	61%[activator]	-3%
CCC(=O)N1CCc2cc(Br)cc(S(=O)(=O)N3CCCC(C(=O)NCc4ccccc4)C3)c21 (centres undefined)	355%[activator]	6%
CCOC(=O)C1CCCN(S(=O)(=O)c2ccc3c(c2)CCCN3C(C)=O)C1 (centres undefined)	151%[activator]	-32%
COc1ccc(C2CC(=O)c3cc(-c4nc(-c5cccc([N+](=O)[O-])c5)cs4)c(=O)n(-c4cccc(C)c4)c3C2)cc1 (centres undefined)	-18%	-10%
CCCn1nc(C(=O)Nc2cccc(C(=O)OC)c2)c2ccccc2c1=O	19%	35%[activator]
COC(=O)[C@@H](CCSC)NC(=O)Nc1ccc(OC)c(Cl)c1	-8%	11%
CCOc1ccc(C(=O)Nc2nnc(SCc3cc(=O)n4ccccc4n3)s2)cc1	-1%	33%[activator]
O=S(=O)(Nc1nc2ccccc2nc1Nc1ccc(F)cc1)c1cccs1	-5%	-3%
Cc1cc(=O)oc2cc(OCC(=O)Nc3nnc(CC(C)C)s3)ccc12	4%	0%
Cc1ccc2oc(-c3ccc(NC(=O)c4ccccc4F)cc3)nc2c1	11%	178%[activator]
COc1ccc(COCC(O)CN(C)Cc2ccc(OC)c(OC)c2)cc1OC (centres undefined)	21%	0%
Cc1cc(C(F)F)n2nc(C(=O)Nc3cc(Cl)ccc3C)nc2n1	-7%	-9%
Cc1ccc(-c2cc(-c3coc4ccccc4c3=O)c3c(n2)-c2ccccc2OC3)cc1	0%	10%
CCNC(=O)NC(=O)COC(=O)c1c[nH]c2ccccc12	-4%	16%
COc1cc(CNC(=O)Cc2ccsc2)ccn1	-8%	26%
COc1ccccc1-c1cc(NC(=O)COCC2CC2)n[nH]1	3%	159%[activator]
Cn1nc(C(=O)OCC(=O)N2c3ccccc3NC(=O)C2(C)C)c2ccccc2c1=O	-11%	0%
COC(=O)c1cc(-c2ccc(Cl)s2)nc2ccccc12	-1%	10%
c1csc(-c2noc(CN3CCCC3c3ccsc3)n2)c1 (centres undefined)	2%	40%[activator]
O=C(c1cc(-c2cccc(Cl)c2)on1)N1CCN(c2ccccc2)CC1	-10%	-8%
CCCCN(Cc1ccccc1)c1ccc(NS(=O)(=O)c2cc(C)c(C)cc2C)cc1C(=O)O	207%[activator]	13%
Cc1ccc(CNC(=O)CSc2ncc3c(n2)-c2ccc(Cl)cc2N(C)S3(=O)=O)cc1	-12%	-3%
CCC(C)C(NC(=O)OC(C)(C)C)C(=O)NC(Cc1ccccc1)C(N)=O (centres undefined)	13%	28%
CCS(=O)(=O)N1CCc2cc(C(=O)Nc3cccc(Cl)c3C)ccc21	7%	96%[activator]
Cc1cc(NS(=O)(=O)c2cn(C)c(C)n2)ccc1Br	0%	7%
Cc1nn(-c2ccc(F)cc2)c(-n2cccc2)c1C(=O)NCCCN1CCN(c2cccc(Cl)c2)CC1	-29%	-16%
COc1ccc2cc(C(=O)c3cc4ccc(OC)cc4oc3=O)c(=O)oc2c1	20%	14%
NC(=O)C1(c2ccccc2)CC1c1ccccc1 (centres undefined)	4%	19%

This is a subset (hit frequency here may not be typical).
